Compound activity: PubChem, National Center for Advancing Translational Sciences (NCATS)
2A firefly: lowers the firefly signal of an FMDV 2A StopGo reporter | Potency, µM (series often up to 57.5 µM), for inactives: at the highest dose signal change, negative = less light | hit rate 0.23% among 120,000 | AID 1745856 | HEK cells with a luciferase reporter of 2A StopGo recoding; active = well fitted falling curve with a large enough effect; inconclusive = small, poorly fitted or top-dose-only effect; inactive = no such curve, though single readings can be large or run the other way; further: nearly all actives have a fitted effect of over 60% in size; overnight with compound
2A Renilla: lowers the Renilla signal of an FMDV 2A StopGo reporter | AID 1745857 | HEK cells with a luciferase reporter of 2A StopGo recoding | Potency, µM (titrated, usually from 57.5 µM), for the others: at the highest dose signal change, negative = less light | hit rate 0.32% among 120,000; active means well fitted falling curve with a large enough effect; inconclusive means small, poorly fitted or top-dose-only effect; inactive means no such curve, though single readings can be large or run the other way; further: nearly all actives have a fitted effect of over 55% in size; overnight with compound
Starred values were filed as active, the others as inactive; ? = inconclusive; [ ] = dose if it differs, or a comment. On the % scale 0 is the no-effect control and ±100 the full control effect; potency means the concentration at half of the fitted maximal effect.

SMILES | 2A firefly | 2A Renilla
Cc1ccc2c(C)c(C(=O)Nc3ccc4c(c3)N(C)C(=O)CO4)oc2c1 | 3% | -5%
CS(=O)(=O)OCCCCOS(C)(=O)=O | ? | -7%
CC(=O)c1ccc(NC(=O)Cn2nc(N3CCN(c4ccccc4)CC3)ccc2=O)cc1 | 33%[activator] | 13%
Cc1sc2nc(SCC(=O)N(C)C)[nH]c(=O)c2c1C | 53%[activator] | 11%
COc1ccc(OC)c(CNCc2c(C(=O)O)c(C)n(Cc3ccc(F)cc3Cl)c2C)c1 | -1% | 55%[activator]
Cc1ccc2cc3cc(C(=O)N4CCN(c5ccccc5)CC4)oc3nc2c1 | 4% | 0%
CC(C)Oc1ccc(C(CC(=O)O)NC(=O)c2ccccc2Cl)cc1 (stereo not given) | 1% | -9%
CCOc1ccccc1NC(=O)CSc1nnc(N)s1 | 14% | -2%
CCCNC(=S)Nc1ccc(C)cc1 | 75%[activator] | 76%[activator]
Cc1ccc(C)c(NC(=O)/C=C/c2cccs2)c1 | 139%[activator] | -2%
CNc1oc(/C=C/c2cc(OC)c(OC)c(OC)c2)nc1C#N | 56%[activator] | 19%
CCC1=Nc2cc(C(=O)NCCc3ccc(OC)c(OC)c3)ccc2Sc2ccccc21 | -14% | -1%
Cc1cccc(NC(=O)N2CCC(CN3CCC(C)CC3)CC2)c1C | 1% | -7%
CCNc1ccc(S(=O)(=O)N(CC)CC)cc1NCC(=O)Nc1ccccc1Cl | 0% | 27%
COc1cccc(C(=O)Oc2c(Sc3ccc(C)cc3)c(C)nn2C(C)(C)C)c1OC | ? | ?
CCOC(=O)c1c(NC(=O)COc2cc(C)ccc2C(C)C)sc(C)c1C | 0% | -10%
CCOC(=O)c1c(S(=O)(=O)NCC(=O)NCc2ccc(C)cc2)c(C)n(C)c1C | ? | 75%[activator]
Cn1c(=O)c2c(ncn2CC(O)CO)n(C)c1=O (stereo not given) | -3% | 0%
COc1ccc(NC(=O)CSc2nc(-c3cccs3)ccc2C#N)cc1 | 13% | -3%
COCCn1c(SCC(=O)Nc2cc(Cl)ccc2OC)nc2c([nH]c3ccccc32)c1=O | -13% | ?
CCCCN(Cc1ccccc1)c1ccc(C(=O)O)cc1NS(=O)(=O)c1ccc(CC(C)C)cc1 | 9% | 11%
O=C1CC(N2CCOCC2)C=C1Nc1ccccc1 (stereo not given) | 0% | 9%
Cc1cc(F)ccc1NC(=O)C1CCN(c2cnc3ccccc3n2)CC1 | 12% | -2%
CCOCCc1nn2c(=O)cc(COC(=O)c3cccs3)nc2s1 | 0% | -4%
O=C(Nc1ccccc1F)C(c1ccccc1)N1Cc2ccccc2C1=O (stereo not given) | -3% | 223%[activator]
COc1ccc(OCC(=O)N2CCN(Cc3cc(=O)n4nc(-c5ccccc5C)sc4n3)CC2)cc1 | ? | ?
COC(=O)CNC(=O)c1ccc(-c2ccccc2)cc1 | 190%[activator] | 13%
COc1ccccc1CNc1nc2ccccc2nc1NS(=O)(=O)c1cccs1 | 0% | 0%
CC(=O)Nc1c(-c2ccccc2)c(C)nn1-c1ccc(C(=O)NCc2ccccc2)cc1 | -6% | 11%
Fc1ccc(COc2ccc(-n3cnnn3)cc2)c(Cl)c1 | 97%[activator] | -3%
CC(Cc1ccccc1)NC(=O)C1CCC(C)(C(=O)O)C1(C)C (stereo not given) | 9% | 13%
NC(=O)N/N=C/c1cccc([N+](=O)[O-])c1 | 14% | 3%
Cc1oc2ncnc(N3CCCCC3)c2c1C(=O)NCC1CCN(Cc2cccc(F)c2)CC1 | -19% | -20%
CCOC(=O)c1cc(C(O)(C(F)(F)F)C(F)(F)F)c(N)o1 | 29% | 45%[activator]
Cc1ccc(C)c(NC(=O)c2cccc[n+]2[O-])c1 | 14% | -6%
COc1ccc(-c2noc(CCCC(=O)Nc3cccc(Cl)c3C)n2)cc1 | -14% | -12%
CSc1cccc(Sc2cc(C(=O)NC3CCCC3)c3ccccc3n2)c1 | ? | -2%
COc1cc(C(=O)Nc2ccc(Cl)c(-c3nc4ncccc4o3)c2)cc(OC)c1OC | 70%[activator] | 94%[activator]
COCCCNC(=O)C(=O)NN | 0% | 10%
Cc1ccc(-c2nc(Cn3nnc(-c4ccccc4)n3)co2)c(C)c1 | 15% | 36%[activator]
CCOc1cc(C)c(C(C)C)cc1S(=O)(=O)n1ccnc1CC | -15% | 324%[activator]
CCOC(=O)N1CCc2c(sc3c2c(=O)n(-c2ccc(CC)cc2)c(=O)n3CC(=O)c2ccccc2)C1 | -25% | -17%
Cn1nc(-c2ccc(OCC(=O)Nc3ccc(F)cc3)cc2)c2ccccc2c1=O | ? | ?
CCOc1ccc(CNC(=O)C2CCN(C(=O)c3sccc3-n3cccc3)CC2)cc1 | 0% | 20%
CC(C)CCn1c(SCC(=O)c2ccccc2)nc2c1c(=O)n(C)c(=O)n2C | ? | ?
Cc1ccc(C(=O)N/N=C/CCc2ccccc2)cc1C | 40%[activator] | 28%
Cc1ccc(-c2cc(=O)c3cc(NC(=O)c4ccco4)ccc3o2)cc1 | 243%[activator] | 12%
CC(=O)NC12CC3CC(C1)CC(C(=O)NCCSCc1ccccc1)(C3)C2 | 22% | 12%
COc1ccccc1C(=O)NC1=Nc2ccccc2N=C(C)C1c1ccccc1 (stereo not given) | -7% | 44%[activator]
CCOCCCNC(=O)CN1C(=O)c2cccnc2Sc2ccccc21 | -15% | 1%
Cc1ccc(C)c(OCCN)c1 | -1% | 2%
COc1ccc(C2=C(C)C(N3CCC(C(=O)Nc4ccc(C)c(Cl)c4)CC3)=NS2(=O)=O)cc1 | -6% | -5%
Cc1ccc(NC(=O)c2ccc(=O)n(CCOc3ccccc3)n2)c(Br)c1 | 20% | 5%
CCc1ccc2oc(C(=O)Nc3cc(C)ccc3C)cc(=O)c2c1 | -7% | -2%
COC(=O)COc1ccc2c(C)c(CC(=O)OC)c(=O)oc2c1C | 4% | -20%
Cc1ccc(CN2C(=O)SC(Nc3ccc(Cl)cc3)C2=O)cc1 (stereo not given) | -16% | 20%
CC(C)c1ccc(Nc2nc3c(S(=O)(=O)c4ccc(Br)cc4)nnn3c3ccsc23)cc1 | 0% | -17%
Cc1cccc(NC(=O)Cn2c(=O)n(Cc3ccc(C(=O)NCc4ccc5c(c4)OCO5)cc3)c(=O)c3ccccc32)c1 | -7% | -12%
COc1cccc(S(=O)(=O)c2cc3ccc(OC)cc3oc2=O)c1 | -9% | 12%
CC(Sc1nc2cc(Cl)ccc2n1C)C(=O)NCc1ccc2c(c1)OCO2 (stereo not given) | -3% | -8%
Other results
SMILES | 2A firefly | 2A Renilla
COc1cc2nc(Nc3ccc(F)cc3)nc(N)c2cc1OC | 39%[activator] | 11%
COc1ccccc1NC(=O)c1ccc2ccccc2n1 | 0% | -7%
CC(=O)Nc1cccc(-n2cc3c(c2-c2ccccc2Cl)c(=O)n(C)c(=O)n3C)c1 | 0% | 6%
CC(=O)Nc1ccc(S(=O)(=O)[C@H]2CS(=O)(=O)C[C@@H]2N2CCC(C)CC2)cc1 | 1% | -8%
COc1ccc(CNC(=O)CCc2nnc3n(C)c(=O)c4sccc4n23)cc1 | -13% | -10%
CCCOc1ccc(N)cc1OCCC | -8% | -5%
NC(=O)C(=O)Nc1ccccc1C(=O)NCc1ccncc1 | 70%[activator] | 32%[activator]
O=C(COc1cc(Cl)ccc1Cl)NCc1cccc(NC(=O)C2CC2)c1 | 4% | 136%[activator]
CC(C)(C)c1nc2cc(NC(=O)c3n[nH]c(=O)c4ccccc34)ccc2o1 | 225%[activator] | 4%
CC1CCN(CCCNC(=O)c2cc3cc(F)ccc3[nH]2)CC1 | -9% | 2%
CC1CCC(NC(=S)NC2CC2)CC1 (stereo not given) | 112%[activator] | 26%
Cn1c(=O)c2c(nc(SCC(N)=O)n2Cc2ccc(Cl)cc2)n(C)c1=O | 12% | 8%
O=C(CCc1ncc(-c2c(F)cccc2F)o1)N1CCN(S(=O)(=O)c2cccc(Cl)c2)CC1 | -5% | -12%
Cc1cc(C(=O)N(C)C2CCS(=O)(=O)C2)c2ccccc2n1 (stereo not given) | 39%[activator] | 10%
O=c1cc(-c2cc3ccccc3o2)c2cc3c(cc2o1)CCC3 | 24% | -1%
Cc1nc(N2CCN(C)CC2)[nH]c(=O)c1Cc1cccc2ccccc12 | -3% | -4%
COc1ccc(C(CC(=O)Nc2ncccc2C)N2Cc3ccccc3C2=O)cc1OC (stereo not given) | -5% | 0%
COc1ccc(C(=O)Oc2ccc3c(=O)c(-c4ccccc4)coc3c2)cc1OC | 0% | 16%
CCOP(=S)(OCC)O/N=C(\C#N)c1ccccc1 | -5%[11.5 µM] | -6%
Cc1cccc(C2C=C(c3ccc(C)c(C)c3)Nc3nnnn32)c1 (stereo not given) | 106%[activator] | 46%[activator]
Cc1ccc(OCc2nc(C#N)c(NCc3ccc4c(c3)OCO4)o2)cc1 | 15% | -3%
COc1ccc(C(=O)NCc2nnnn2-c2ccc(C)c(C)c2)cc1 | 7% | -1%
Cc1nc(Nc2nc3ccccc3o2)ncc1C(=O)Nc1cccc(C(F)(F)F)c1 | 229%[activator] | 0%
COc1ccc(CNC(=O)c2nn(Cc3ccccc3)c(=O)c3ccccc23)cc1 | 11% | 153%[activator]

Reprinted from the part before: 2 entries, then new ones.
SMILES | 2A firefly | 2A Renilla
Cc1nc(Nc2nc3ccccc3o2)ncc1C(=O)Nc1cccc(C(F)(F)F)c1 | 229%[activator] | 0%
COc1ccc(CNC(=O)c2nn(Cc3ccccc3)c(=O)c3ccccc23)cc1 | 11% | 153%[activator]
Cc1cccc(NS(=O)(=O)c2ccc3c(c2)OCC(C(=O)N2CCCC2)O3)c1C (stereo not given) | -4% | 182%[activator]
NC(=O)C1CN(CC(=O)Nc2ccccc2Sc2ccccc2)c2ccccc2O1 (stereo not given) | -14% | 27%
NC1=NC(c2ccc(O)cc2)n2c(nc3ccccc32)N1 (stereo not given) | 9% | 6%
Cc1ccc(-c2n[nH]c3c2C(c2ccc(C(C)(C)C)cc2)NC3=O)cc1 (stereo not given) | -7% | -12%
COc1ccc(NC(=O)/C(C#N)=C/c2cc(C)n(-c3ccc(F)cc3)c2C)cc1 | 7% | -1%
Cc1ccsc1CCN1C(=O)N(c2ccccc2)C(=O)C1CC(=O)Nc1ccc(F)cc1 (stereo not given) | -16% | 181%[activator]
CC(C)(C)C(=O)/C=c1/[nH]c(=O)/c(=C/c2c(F)c(F)c(F)c(F)c2F)s1 | -5% | 7%
Fc1ccc(-c2csc(=Nc3cccc(C(F)(F)F)c3)n2Cc2ccc3c(c2)OCO3)cc1 | -11% | 29%

In the list so far, 14 contain a Cl atom:
SMILES | 2A firefly | 2A Renilla
COc1ccc(OC)c(CNCc2c(C(=O)O)c(C)n(Cc3ccc(F)cc3Cl)c2C)c1 | -1% | 55%[activator]
CC(C)Oc1ccc(C(CC(=O)O)NC(=O)c2ccccc2Cl)cc1 (stereo not given) | 1% | -9%
CCNc1ccc(S(=O)(=O)N(CC)CC)cc1NCC(=O)Nc1ccccc1Cl | 0% | 27%
COCCn1c(SCC(=O)Nc2cc(Cl)ccc2OC)nc2c([nH]c3ccccc32)c1=O | -13% | ?
Fc1ccc(COc2ccc(-n3cnnn3)cc2)c(Cl)c1 | 97%[activator] | -3%
COc1ccc(-c2noc(CCCC(=O)Nc3cccc(Cl)c3C)n2)cc1 | -14% | -12%
COc1cc(C(=O)Nc2ccc(Cl)c(-c3nc4ncccc4o3)c2)cc(OC)c1OC | 70%[activator] | 94%[activator]
COc1ccc(C2=C(C)C(N3CCC(C(=O)Nc4ccc(C)c(Cl)c4)CC3)=NS2(=O)=O)cc1 | -6% | -5%
Cc1ccc(CN2C(=O)SC(Nc3ccc(Cl)cc3)C2=O)cc1 (stereo not given) | -16% | 20%
CC(Sc1nc2cc(Cl)ccc2n1C)C(=O)NCc1ccc2c(c1)OCO2 (stereo not given) | -3% | -8%
CC(=O)Nc1cccc(-n2cc3c(c2-c2ccccc2Cl)c(=O)n(C)c(=O)n3C)c1 | 0% | 6%
O=C(COc1cc(Cl)ccc1Cl)NCc1cccc(NC(=O)C2CC2)c1 | 4% | 136%[activator]
Cn1c(=O)c2c(nc(SCC(N)=O)n2Cc2ccc(Cl)cc2)n(C)c1=O | 12% | 8%
O=C(CCc1ncc(-c2c(F)cccc2F)o1)N1CCN(S(=O)(=O)c2cccc(Cl)c2)CC1 | -5% | -12%
